# CBX7 inh = inhibitors of human CBX7 binding to H3K27me3 peptide. O95931. normalised signal (fraction of DMSO) (no concentration beside the values). actives 1.1% (n = 66,000). AlphaScreen His6-CBX7 / biotin-H3K27me3 peptide binding; active compounds read low; in the data active = normalised signal below about 0.5;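 note: 100 nL library stock added to about 20 µL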
# Target sequence (O95931 whole entry, looked up): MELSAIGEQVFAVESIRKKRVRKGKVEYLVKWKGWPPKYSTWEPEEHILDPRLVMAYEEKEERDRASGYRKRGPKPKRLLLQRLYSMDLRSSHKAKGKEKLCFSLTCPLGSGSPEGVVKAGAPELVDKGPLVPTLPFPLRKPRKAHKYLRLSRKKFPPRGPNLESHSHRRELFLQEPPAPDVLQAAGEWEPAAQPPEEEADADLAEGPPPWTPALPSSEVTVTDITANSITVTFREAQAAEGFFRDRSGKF
# CBX7 inh z-score = also measured in CBX7 inh; calls as there; z-score; measured here: z-score of CBX7 signal; some inactives read as strong as hits; reference of the scale not given here;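 same signal on another scale; lower means less binding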
# Active calls of the source: *.
SMILES,CBX7 inh,CBX7 inh z-score
COc1ccccc1NC(=O)NCCCN1CCN(c2ccc(F)cc2)CC1,1.2,1.9
CCN1CCN(CCCNC(=O)CCc2nc(-c3ccc(OC)cc3)no2)CC1,1.1,1.1
Cc1nc2ncnn2c(C)c1CCC(=O)N1CCCC1,1,0.59
COc1ccc(-c2nn(C)c3sc(C(=O)NC4CCCC4)cc23)cc1OC,0.9,-1.3
Cc1cccc(-c2nc(SCC(=O)NCC3CCCO3)c(-c3ccccc3)[nH]2)c1 (centres undefined),0.98,-0.59
CCOC(=O)c1oc2ccccc2c1NC(=O)COc1cccc(C)c1,0.99,-0.29
CCOC(=O)N1CCN(C(=O)C2CC(c3ccc(F)cc3)=NO2)CC1 (centres undefined),1.1,2.9
COc1ccc(Nc2ncnc3sc(C)c(S(=O)(=O)N4CCC(C)CC4)c23)cc1Cl,1,0.49
CCOC(=O)c1c(NC(=O)COc2ccc(F)cc2F)sc2c1CCC(CC)C2 (centres undefined),1.1,0.14
O=C(Nc1ccc(F)cc1)c1cccnc1Nc1ccc(F)cc1,1,0.33
N#Cc1ccc(C(=O)Nc2cccc(-c3nc4ncccc4o3)c2)c(F)c1,1.2,2.9
COc1ccc(Cl)cc1NC(=O)CCC(=O)Nc1ccc2nc(N3CCN(C)CC3)cc(C)c2c1,1,1.9
CCOc1ccc(CCNC(=O)c2nc(-c3cccc(C)c3)oc2C)cc1OCC,0.86,-1.1
Cc1cccc(-n2ccnc2SCC(=O)Nc2cccc(Cl)c2)c1C,0.85,-0.15
Cc1ccc(-c2nc(CS(=O)(=O)CC(=O)Nc3cc(C)cc(C)c3)c(C)o2)cc1,0.89,-0.23
Cc1ccc(S(=O)(=O)Nc2ccccc2CNc2ccccc2Br)cc1,1.1,2.6
CCCCN(C)CCNC(=O)C1CC(=O)N(CCc2ccc(C)cc2)C1 (centres undefined),1,0.56
CC1CCCN(C(=O)Cn2ncc3c2-c2ccccc2OC3)C1 (centres undefined),0.88,-1.5
COc1ccc(NC(=O)C2CCN(S(=O)(=O)c3ccccc3)CC2)cc1Cl,1,-0.068
COc1ccc(OC)c(CNC(=O)CCNC(=O)Cn2ccc3ccccc3c2=O)c1,1,0.2

# Shown field by field: entries from further up.
Cc1cccc(-c2nc(SCC(=O)NCC3CCCO3)c(-c3ccccc3)[nH]2)c1 (centres undefined)
  CBX7 inh = 0.98; CBX7 inh z-score = -0.59
CCOC(=O)c1oc2ccccc2c1NC(=O)COc1cccc(C)c1
  CBX7 inh = 0.99; CBX7 inh z-score = -0.29
CCOC(=O)N1CCN(C(=O)C2CC(c3ccc(F)cc3)=NO2)CC1 (centres undefined)
  CBX7 inh = 1.1; CBX7 inh z-score = 2.9

# The main list resumes, starting 4 compounds before the break.
SMILES,CBX7 inh,CBX7 inh z-score
CCCCN(C)CCNC(=O)C1CC(=O)N(CCc2ccc(C)cc2)C1 (centres undefined),1,0.56
CC1CCCN(C(=O)Cn2ncc3c2-c2ccccc2OC3)C1 (centres undefined),0.88,-1.5
COc1ccc(NC(=O)C2CCN(S(=O)(=O)c3ccccc3)CC2)cc1Cl,1,-0.068
COc1ccc(OC)c(CNC(=O)CCNC(=O)Cn2ccc3ccccc3c2=O)c1,1,0.2
CCCNC(=O)C1CCN(S(=O)(=O)c2ccc3nc4c(c(C(=O)O)c3c2)CC(C)CC4)CC1 (centres undefined),1,1.5
COc1ccc(Cl)cc1N1CC(c2nc3ccccc3n2CCC(C)C)CC1=O (centres undefined),0.95,-0.94
O=C(NCCc1ccc(Cl)cc1)C1CCCN(S(=O)(=O)c2cccnc2)C1 (centres undefined),1,-0.00064
COc1ccc(-c2nc(CN3CCC(C(=O)NC4CCCC(C)C4C)CC3)c(C)o2)cc1OC (centres undefined),1,0.34
CCC(=O)N1CCc2cc(S(=O)(=O)NCCN3CCCCCC3)ccc21,1.1,1.3
Cc1cc(NC(=O)Cn2cc(S(=O)(=O)N3CCC(C)CC3)c3ccccc3c2=O)no1,0.97,-0.81
COc1cccc(NC(=O)C2CCN(c3cc(C)nc4c(-c5ccc(Cl)cc5)c(C)nn34)CC2)c1,1,0.007
CCCCN(CC)CCCNC(=O)c1cc(=O)[nH]c2ccc(S(=O)(=O)N3CCCC(C)C3)cc12 (centres undefined),0.8,-2.8
CCOc1ccc2nc(C)cc(Nc3ccc(Cl)cc3)c2c1,0.85,-2.1
O=C(C1=CCN(S(=O)(=O)c2ccccc2)CC1)N1CCC2(CC1)OCCO2,1,1.8
CCOCCCNC(=O)c1ccc2c(c1)N(Cc1ccc(Cl)cc1)CCS2,0.98,-0.83
CC1CCCCC1NC(=O)CCN1C(=O)COc2ccccc21 (centres undefined),0.97,-0.92
O=C(CN1C(=O)COc2ccccc21)NCCCN1CCN(Cc2ccccc2)CC1,1,1.3
CCCCOc1ccc(C2(C)CC(=O)N(C)C2=O)cc1 (centres undefined),0.91,-1
CN1CC(=O)NC1=NC(=O)C1CCN(C(=O)c2cnn(-c3ccccc3)c2-n2cccc2)CC1,0.83,-1.3
Cc1ccc(C)c(N2CCN(S(=O)(=O)c3ccc4c(c3)CCN4C(=O)C3CC3)CC2)c1,0.94,-2
CCCN1Cc2cccc(C(=O)Nc3cccc(C(=O)OCC)c3)c2C1=O,0.93,-0.6
Cc1ccc2nc(-c3ccsc3)c(NC3CCCCC3)n2c1,1.2,2.4
COc1ccccc1NC(=O)c1c(NCc2ccncc2)sc2c1CCC(C)C2 (centres undefined),0.59,-5.7
CCC(C)NC(=O)C1=CCN(S(=O)(=O)c2ccc(F)cc2)CC1 (centres undefined),1,1.1
Cc1ccccc1NC(=O)CCc1nc(-c2cccs2)no1,1,0.1
O=S(=O)(c1ccc(F)cc1)c1nc(-c2ccccc2)oc1SCc1ccccc1F,1,0.23
O=c1[nH]c(-c2ccc(-c3ccc(F)cc3)o2)nc2sc3c(c12)CCCC3,1.1,2.8
CCOc1ccc2nc(N3CCCC(C(=O)NCCc4cc(OC)ccc4OC)C3)sc2c1 (centres undefined),0.87,-3.4
COCc1nnc(NC(=O)c2ccc(S(=O)(=O)N(CCC#N)CCC#N)cc2)o1,0.063*,-1.6*
CC(C(=O)NCc1ccccn1)n1ncc2ccccc21 (centres undefined),0.79,-5.4
COc1ccc(N2Cc3cccc(C(=O)Nc4ccc(Br)c(C)c4)c3C2=O)cc1,1,-0.021
COc1ccc(N2CCN(C(=O)Cn3nc(Cc4cccnc4)c4ccccc4c3=O)CC2)cc1,1,0.27
Cc1ccccc1N1C(=O)C(Oc2ccc(Cl)cc2)C1CNC(C)C (centres undefined),1.1,0.95
COc1cc2c(cc1OC)C(C(=O)N(C)CCc1ccccn1)C(c1ccccc1F)N(C)C2=O (centres undefined),1.1,1
O=C(O)c1ccc(Nc2nc(-c3ccccc3)nc3ccccc23)cc1,0.83,-1.9
Cc1nc2c(C(=O)N3CCCCC3)cnn2c(C)c1Cc1cccc(Br)c1,0.95,-1.2
CCOCCCNC(=O)c1ccc2c(c1)N(Cc1ccc(F)cc1Cl)C(=O)CS2,0.99,-0.55
Nc1nonc1-c1nc2ccccc2n1Cc1cccc(-c2nn[nH]n2)c1,0.84,-1.1
CN(C)CCNC(=O)c1ccc2c(c1)N(Cc1ccc(Cl)cc1)C(=O)c1ccccc1S2=O (centres undefined),1.1,4
Cc1onc(-c2ccccc2Cl)c1C(=O)NCC12CC3CC(CC(C3)C1)C2,1.1,2.4
Fc1ccc(-c2cc(C(F)(F)F)nc(-n3cc(Cl)cn3)n2)cc1,1.1,3.5
Cc1ccc(S(=O)(=O)C2(C(=O)Nc3ccc(C(C)C)cc3)CC2)cc1,1.1,3.3
COc1ccc(CNC(=O)C2CC(=O)N(CCC(C)C)C2)cc1 (centres undefined),1,0.18
CC1CC(C)CN(S(=O)(=O)c2ccc3nc(-c4ccccc4)[nH]c3c2)C1 (centres undefined),0.8,-0.27
Cc1ccccc1N1C(=O)C(Oc2ccc(Cl)cc2)C1CNc1ccccc1 (centres undefined),0.97,-0.3
Cc1cccc(CN2CCC(CNC(=O)Cc3c(C(=O)O)[nH]c4ccc(Cl)cc34)CC2)c1,0.97,-0.75
COc1ccc2cc(CCNC(=O)c3cccc4ccccc34)c(=O)[nH]c2c1,0.98,-0.81
O=C(Nc1ccccc1-c1nc2ccccc2s1)c1ccccc1,1,0.29
Cc1ccc(Cn2nnc3c(=O)n(CC(=O)Nc4cc(C)on4)cnc32)cc1,1,0.18
CCCCOc1ccc(C(=O)Nc2nc(-c3ccc(-c4ccccc4)cc3)cs2)cc1,0.97,-0.41
O=C(CN1CCN(Cc2ccc(F)cc2Cl)C1=O)NCc1cccnc1,0.9,-1.4
Cc1ncc(CO)c2cc(-c3nnc(NCc4ccc(F)cc4)s3)c(=O)oc12,1,0.7
Cc1cc(C)cc(NC(=O)C2CCN(S(=O)(=O)c3cnc[nH]3)CC2)c1,1.1,1.5
O=C(NCCCN1CCN(Cc2ccccc2)CC1)c1cc(-c2ccncc2)nc2ccccc12,1,0.37
CCC1=Nc2cc(C(=O)NCCN3CCCCC3C)ccc2Sc2ccccc21 (centres undefined),1.3,0.79
Cc1cccc(Cc2c(C)nc3c(C(=O)NCCc4ccccc4)cnn3c2C)c1,0.83,-4.7
O=C(NCCOc1ccccc1Cl)Nc1ccc(Br)cc1,0.92,-0.88
COc1ccccc1OCCOc1ccc(-c2nc3sc4c(c3c(=O)[nH]2)CCCC4)cc1,1.1,2.5
COc1ccc(-c2nc(CN3CCC(C(=O)NCc4ccc(Cl)cc4)CC3)c(C)o2)cc1,1.3,3.6
COc1ccc(-c2nc(CSCC(=O)NCc3ccc4c(c3)OCO4)c(C)o2)cc1OC,0.84,-2.5
O=C(CC1Sc2ccccc2NC1=O)Nc1ccc(Cl)c(C(F)(F)F)c1 (centres undefined),1.1,0.9
CCOC(=O)c1nc(Nc2c(F)cccc2F)c2ccccc2n1,1,0.62
COc1cccc(CN2C(=O)CCC2(C)C(=O)NC2CCCCC2)c1 (centres undefined),0.96,-0.86
O=C(c1cn(-c2ccccc2)nc1-c1ccc(Cl)cc1)N1CCc2ccccc2C1,0.88,-3.1

# Next part:
SMILES,CBX7 inh,CBX7 inh z-score
Cc1nc2ccc(S(=O)(=O)NC(CC(C)C)C(=O)Nc3cccc(Cl)c3C)cc2s1 (centres undefined),1,-0.0058
COc1ccc(CNC(=O)C2CC(=O)N(c3ccc(Cl)cc3)C2)cc1 (centres undefined),1,0.032
COc1ccc(Cn2c(=O)c3cccnc3n(Cc3ccc(C#N)cc3)c2=O)cc1,1.1,0.92
CCCSc1oc(-c2ccccc2)nc1S(=O)(=O)c1ccc(C)cc1,0.94,-0.76
Clc1ccc(Nc2c(-c3ccccn3)nc3cnccn23)cc1,0.8,-8.3
Cc1c(C(=O)N2CCOCC2)oc2ccc(S(=O)(=O)N3CCOCC3)cc12,1.2,2.4
CN(Cc1ccccc1)C(=O)c1c[nH]c2ccc(S(=O)(=O)Nc3ccccc3F)cc2c1=O,0.89,-1.2
CCCCNS(=O)(=O)c1ccc(NC(=O)c2cc(-c3ccccc3)nc3ccccc23)cc1,1,0.22
O=C(CN1C(=O)CSc2ccccc21)NCCN1CCOCC1,0.48*,-9*
Cc1cc2ccccc2c(=O)n1CC(=O)NCc1cccnc1,0.92,-2
CCOc1ccc(C2CC(=O)Nc3cc4c(cc32)OCO4)cc1OC (centres undefined),0.97,-1
COc1ccc(-c2nc(CN3CCC(C(=O)NC4CCCC4)CC3)c(C)o2)cc1,0.99,-0.51
CCc1ccc(NS(=O)(=O)c2ccc3[nH]cc(C(=O)NCc4ccccc4)c(=O)c3c2)cc1,0.85,-1.9
COc1ccccc1NC(=O)CSc1nnc(-c2ccccc2)o1,1,0.34
COc1ccc(CC(=O)Nc2c3c(nn2-c2ccc(Cl)cc2)CSC3)cc1OC,0.98,-0.77
Cc1cc(C(=O)Nc2cnn(Cc3ccc(F)cc3)c2)no1,0.96,-1.3
CN1CCCCc2c(n(Cc3ccccc3)c3ccccc23)C1=O,1,1.9
CCOC(=O)c1ccc(NC(=O)C2(S(=O)(=O)c3ccc(C)cc3)CC2)cc1,1.2,2.1
COCCNC(=O)c1cc(-c2ccc(F)cc2)on1,1,2.1
Cc1c(C(=O)NCCN2CCOCC2)oc2ccc(S(=O)(=O)N3CCCCCC3)cc12,1.3,2.7

# Record cards, from the list above. Order of screens: CBX7 inh | CBX7 inh z-score
# Shown for CCOC(=O)c1ccc(NC(=O)C2(S(=O)(=O)c3ccc(C)cc3)CC2)cc1 → 1.2 | 2.1
# Shown for CCCCNS(=O)(=O)c1ccc(NC(=O)c2cc(-c3ccccc3)nc3ccccc23)cc1 → 1 | 0.22

# (listing goes on)
SMILES,CBX7 inh,CBX7 inh z-score
CCn1c2ccccc2c2cc(NC(=O)COc3ccc(C)cc3)ccc21,1.1,0.47
Cc1ccc(NC(=O)CC23C[C@H]4C[C@@H](C2)CC(n2nnc(C)n2)(C4)C3)c(Cl)c1,1,0.34
Cc1ccc(C)c(CN2C(=O)CSc3ccc(C(=O)NCc4ccc(F)cc4)cc32)c1,1,1.1
Brc1ccc(Oc2nnnn2-c2ccccc2)cc1,1,0.23
NC(=O)C1CCN(C(=O)c2ccc3c(c2)N(Cc2ccccc2F)C(=O)c2ccccc2S3)CC1,1,0.047
Cc1nc2cc(-c3ccc(Cl)cc3)nn2c(C)c1CCC(=O)Nc1ccc(CN2CCCC2)cc1,1,0.59
CCCOc1ccc(-c2cc(C(N)=O)c3ccccc3n2)cc1,1,0.27
COc1ccc(NC(=O)c2cnc3ccccn3c2=O)c(OC)c1,1,0.98
Cc1cc(NS(=O)(=O)c2ccc3nc(-c4ccccc4)[nH]c3c2)ccc1Br,0.81,-3.3

# Some of the compounds tested; count on the stated rates, not on these rows.
